STAT3 SMM: STAT3 binders, primary screen, biochemical, small molecule microarray, single point, set 2; His-STAT3 binding, anti-His fluorescence; calls only; 0.2% of 17,000 active;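 active = compounds whose four printed spots each show fluorescence over background unusually high for their array block, chance value under 7%; compounds were printed on slides so no solution concentration is given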;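 note: about 2 pmol printed per array spot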
Myc binder: binders of human c-Myc, primary screen, biochemical, small molecule microarray, anti-His fluorescence; calls only; 1.5% of 17,000 active; His-c-Myc binding;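 active = spot fluorescence over background with P-value below 7% in all four replicate spots, showing protein binding; compounds were printed on slides so no solution concentration is given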;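 note: score is binary with 100 for all four spots passing and 0 otherwise; about 2 pmol printed per array spot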
Target sequence (P01106 whole entry, looked up): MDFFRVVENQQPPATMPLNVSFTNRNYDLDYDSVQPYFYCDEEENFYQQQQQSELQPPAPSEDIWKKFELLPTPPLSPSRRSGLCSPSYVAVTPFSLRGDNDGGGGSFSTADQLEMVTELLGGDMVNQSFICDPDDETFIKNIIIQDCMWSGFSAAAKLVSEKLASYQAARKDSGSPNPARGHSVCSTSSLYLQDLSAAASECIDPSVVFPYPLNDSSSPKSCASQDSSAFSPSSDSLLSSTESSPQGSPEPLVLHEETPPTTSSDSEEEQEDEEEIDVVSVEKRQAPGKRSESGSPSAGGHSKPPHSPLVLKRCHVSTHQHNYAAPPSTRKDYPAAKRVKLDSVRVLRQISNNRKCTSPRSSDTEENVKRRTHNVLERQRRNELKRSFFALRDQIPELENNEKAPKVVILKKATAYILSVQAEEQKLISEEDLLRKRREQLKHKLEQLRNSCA
p53 mut binder: binders of human mutant p53, primary screen, biochemical, small molecule microarray, anti-GST fluorescence | calls only | 0.4% of 17,000 active | small molecule microarray binding | mutant tumor protein p53 (GST-tagged), Homo sapiens;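 active = compounds whose four printed spots each glow above background more than chance allows, each with a p-value under 7%; compounds were printed on slides so no solution concentration is given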;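 note: about 2 pmol printed per array spot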
ID4 SMM: binders of human ID4 protein, primary screen, biochemical, small molecule microarray, single point | DNA-binding protein inhibitor ID-4 (Homo sapiens), P47928 | Flag-ID4 binding, fluorescence F/B | calls only | 1.2% of 31,000 active | AID 624137, 2012;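 active = spot signal over background at p below 0.07 in all four prints; compounds were printed on slides so no solution concentration is given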;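 note: a binder raises fluorescence above local background on the spot; about 2 pmol printed per array spot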
Target sequence (P47928 whole entry, looked up): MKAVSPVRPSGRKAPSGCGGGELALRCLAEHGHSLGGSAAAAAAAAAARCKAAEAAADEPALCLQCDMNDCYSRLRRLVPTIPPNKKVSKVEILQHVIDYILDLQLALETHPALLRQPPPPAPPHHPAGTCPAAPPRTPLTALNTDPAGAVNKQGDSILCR
Calls only. The list is partial (hit frequency here may not be typical).

`C[C@H](CO)N1C[C@H](C)[C@H](CN(C)Cc2ccc(F)cc2)Oc2ncc(-c3ccc(F)cc3)cc2C1=O` gave STAT3 SMM inactive, Myc binder inactive, p53 mut binder inactive and ID4 SMM inactive.
Screening C[C@@H]1CCCCO[C@H](CN(C)S(C)(=O)=O)[C@H](C)CN([C@@H](C)CO)C(=O)c2cc(NC(=O)Nc3ccccc3)ccc2O1 returned STAT3 SMM inactive, Myc binder inactive, p53 mut binder inactive and ID4 SMM inactive.
Screening C/C=C(\CO)C(=O)O[C@H]1[C@H](O)[C@@H](C(=O)OC)O[C@@H]2C[C@H]3OC(n4cnc5c(N)ncnc54)[C@H](OC)[C@H]3O[C@]21O (stereo partly drawn) returned STAT3 SMM inactive, Myc binder inactive, p53 mut binder inactive and ID4 SMM inactive.
CSc1cccc(NC(=O)CNS(=O)(=O)c2ccc(F)cc2)c1 was read as STAT3 SMM inactive, Myc binder inactive, p53 mut binder inactive and ID4 SMM inactive.
C[C@H](CO)N1C[C@H](C)[C@@H](CN(C)Cc2ccccc2)OCCCC[C@H](C)Oc2ccc(N(C)C)cc2C1=O was read as STAT3 SMM inactive, Myc binder inactive, p53 mut binder inactive and ID4 SMM inactive.
Screening Cc1cc(C)cc(N(CC(=O)Nc2ccc(C(N)=O)cc2)S(C)(=O)=O)c1 returned STAT3 SMM inactive, Myc binder inactive, p53 mut binder inactive and ID4 SMM inactive.
Screening C[C@@H]1CN([C@@H](C)CO)C(=O)Cc2cc(NS(=O)(=O)c3cn(C)cn3)ccc2O[C@H]1CN(C)S(=O)(=O)c1ccc(Cl)cc1 returned STAT3 SMM inactive, Myc binder inactive, p53 mut binder inactive and ID4 SMM inactive.
`O=C(c1ccccc1)c1ccc(N2CCOCC2)cc1O` gave STAT3 SMM inactive, Myc binder inactive, p53 mut binder inactive and ID4 SMM inactive.
O=C(O)CC(Cc1ccccc1)C(=O)Nc1ccc(Cl)c(Cl)c1 (stereo not drawn) was read as STAT3 SMM inactive, Myc binder inactive, p53 mut binder inactive and ID4 SMM inactive.
`C[C@H](CO)N1C[C@H](C)[C@@H](CN(C)S(=O)(=O)c2cccs2)OCCCC[C@H](C)Oc2ccc(N(C)C)cc2C1=O` gave STAT3 SMM inactive, Myc binder inactive, p53 mut binder inactive and ID4 SMM inactive.
Screening Cc1ccc(O)c(NC(=O)CCCOc2ccc(Cl)cc2Cl)c1 returned STAT3 SMM inactive, Myc binder inactive, p53 mut binder inactive and ID4 SMM inactive.
For O=C(CN1C(=O)CNC1=O)Nc1ccc(Cl)cc1 the results were STAT3 SMM inactive, Myc binder inactive, p53 mut binder inactive and ID4 SMM inactive.
For C[C@@H]1CN([C@@H](C)CO)C(=O)CCCn2cc(nn2)CO[C@H]1CN(C)C(=O)c1cc(-c2ccccc2)on1 the results were STAT3 SMM inactive, Myc binder inactive, p53 mut binder inactive and ID4 SMM inactive.
`COc1ccc(S(=O)(=O)N(C)C[C@H]2OCCCC[C@H](C)Oc3ccc(NC(=O)CCC(F)(F)F)cc3C(=O)N([C@H](C)CO)C[C@H]2C)cc1` gave STAT3 SMM inactive, Myc binder inactive and p53 mut binder inactive.
For Cc1noc(C)c1S(=O)(=O)Nc1ccc2c(c1)C(=O)N([C@H](C)CO)C[C@H](C)[C@@H](CN(C)C)O2 the results were STAT3 SMM inactive, Myc binder inactive, p53 mut binder inactive and ID4 SMM inactive.
`Cn1c(SCC(=O)N2CCCCC2)nnc1-c1cccc(NC(=O)c2ccccc2)c1` gave STAT3 SMM inactive, Myc binder inactive, p53 mut binder inactive and ID4 SMM inactive.
Screening C[C@H]1CN([C@@H](C)CO)C(=O)c2cc(NC(=O)c3ccncc3)ccc2O[C@@H]1CN(C)Cc1ccc(C(F)(F)F)cc1 returned STAT3 SMM inactive, Myc binder inactive and p53 mut binder inactive.
For COc1ccc(CN(C)C[C@@H]2Oc3c(NS(=O)(=O)c4cn(C)cn4)cccc3C(=O)N([C@@H](C)CO)C[C@H]2C)cc1 the results were STAT3 SMM inactive, Myc binder inactive, p53 mut binder inactive and ID4 SMM inactive.
For C[C@H](CO)N1C[C@H](C)[C@H](CN(C)C)Oc2c(NC(=O)Nc3ccc(C(F)(F)F)cc3)cccc2C1=O the results were STAT3 SMM inactive, Myc binder inactive, p53 mut binder inactive and ID4 SMM inactive.
C[C@@H]1CN([C@H](C)CO)C(=O)c2cccc(NS(C)(=O)=O)c2O[C@@H]1CN(C)Cc1ccc(Oc2ccccc2)cc1 was read as STAT3 SMM inactive, Myc binder inactive, p53 mut binder inactive and ID4 SMM inactive.
`C[C@@H]1CN([C@@H](C)CO)C(=O)c2cc(NC(=O)Cn3cnnn3)ccc2O[C@H]1CN(C)C(=O)Nc1ccc(F)cc1` gave STAT3 SMM inactive, Myc binder inactive, p53 mut binder inactive and ID4 SMM inactive.
CNC[C@H]1Oc2ccc(NC(=O)Nc3ccccc3)cc2CC(=O)N([C@@H](C)CO)C[C@H]1C was read as STAT3 SMM inactive, Myc binder inactive, p53 mut binder inactive and ID4 SMM inactive.
C[C@H](CO)N1C[C@H](C)[C@@H](CN(C)C(=O)Nc2ccccc2)Oc2ccc(NC(=O)CCC(F)(F)F)cc2CC1=O was read as STAT3 SMM inactive, Myc binder inactive, p53 mut binder inactive and ID4 SMM inactive.
`C[C@H]1CN([C@@H](C)CO)C(=O)c2cc(NS(C)(=O)=O)ccc2O[C@@H]1CN(C)C` gave STAT3 SMM inactive, Myc binder inactive, p53 mut binder inactive and ID4 SMM inactive.
`Cc1ccc(CN2CCN(CCO)CC2)o1` gave STAT3 SMM inactive, Myc binder inactive, p53 mut binder inactive and ID4 SMM inactive.
`C=CC(C)(O)CC/C=C(\C)C(=O)OC1C(CO)OC(OC2OC=CC3(O)C(OC(=O)C4=COC(OC5OC(CO)C(O)C(O)C5O)C5C(C)CCC45)C4OC4(C)C23)C(O)C1O` (stereo not drawn) gave STAT3 SMM inactive, Myc binder inactive and p53 mut binder inactive.
For C[C@H](CO)N1C[C@H](C)[C@H](CN(C)C(=O)Nc2ccc(F)cc2)Oc2ccc(NS(=O)(=O)c3cn(C)cn3)cc2CC1=O the results were STAT3 SMM inactive, Myc binder inactive, p53 mut binder inactive and ID4 SMM inactive.
`O=C(Nc1ccc(Cl)cc1Cl)NC(Cc1ccc(O)cc1)C(=O)O` (stereo not drawn) gave STAT3 SMM inactive, Myc binder inactive, p53 mut binder inactive and ID4 SMM active.
Screening COCC1=C2[C@@H](c3ccccc3)OB(O)C[C@@H]2[C@@H]2C(=O)N(Cc3ccccc3)C(=O)[C@@H]2C1 returned STAT3 SMM inactive, Myc binder inactive, p53 mut binder inactive and ID4 SMM inactive.
For C[C@@H]1CN([C@@H](C)CO)C(=O)c2cc(N(C)C)ccc2O[C@@H](C)CCCCO[C@H]1CN(C)C(=O)C1CCCCC1 the results were STAT3 SMM inactive, Myc binder inactive, p53 mut binder inactive and ID4 SMM inactive.
`C[C@H]1CN([C@@H](C)CO)C(=O)c2cc(NC(=O)CCC(F)(F)F)ccc2O[C@@H]1CN(C)C` gave STAT3 SMM inactive, Myc binder inactive, p53 mut binder inactive and ID4 SMM inactive.
For C[C@H](CO)N1C[C@H](C)[C@H](CN(C)C(=O)Nc2ccc(F)cc2)Oc2ccc(NC(=O)Nc3ccc4c(c3)OCO4)cc2C1=O the results were STAT3 SMM inactive, Myc binder inactive, p53 mut binder inactive and ID4 SMM inactive.
`Cc1ccc(NC(=O)CSc2nnc(-c3ccc(C(C)(C)C)cc3)o2)c(C)c1` gave STAT3 SMM inactive, Myc binder inactive, p53 mut binder inactive and ID4 SMM inactive.
For Cc1noc(C)c1NC(=O)N(C)C[C@H]1Oc2c(NC(=O)Nc3ccc4c(c3)OCO4)cccc2C(=O)N([C@@H](C)CO)C[C@@H]1C the results were STAT3 SMM inactive, Myc binder inactive and p53 mut binder inactive.
`CNC(=O)C1=C[C@H](c2csc3ccccc23)C[C@H](OCc2ccc(CO)cc2)O1` gave STAT3 SMM inactive, Myc binder inactive and p53 mut binder inactive.
C[C@@H]1CN([C@@H](C)CO)C(=O)c2cc(NC(=O)CCCN(C)C)ccc2O[C@@H](C)CCCCO[C@H]1CN(C)C(=O)CCCN(C)C was read as STAT3 SMM inactive, Myc binder inactive, p53 mut binder inactive and ID4 SMM inactive.
For C[C@H]1CN([C@@H](C)CO)C(=O)c2cccc(NC(=O)Nc3ccc(C(F)(F)F)cc3)c2O[C@H]1CN(C)C(=O)Nc1ccc(F)cc1 the results were STAT3 SMM inactive, Myc binder inactive, p53 mut binder inactive and ID4 SMM inactive.
CCCCC/C=C\C/C=C\C/C=C\CCCCCCC(=O)O was read as STAT3 SMM inactive, Myc binder inactive, p53 mut binder inactive and ID4 SMM active.
`O=C(CC1(O)C(=O)N(CCOc2ccccc2)c2ccccc21)c1ccc2c(c1)CCCC2` (stereo not drawn) gave STAT3 SMM inactive, Myc binder inactive, p53 mut binder inactive and ID4 SMM inactive.
COc1ccc([Si](C)(C)[C@H]2[C@H](CCn3cc(CCO)nn3)O[C@@]3(C(=O)N(Cc4ccc(N5CCOC5=O)cc4)c4ccccc43)[C@@H]2C)cc1 was read as STAT3 SMM inactive, Myc binder inactive, p53 mut binder inactive and ID4 SMM inactive.
COC(=O)c1c(NC(=O)CN2C(=O)c3ccccc3S2(=O)=O)sc2c1CCCC2 was read as STAT3 SMM inactive, Myc binder inactive, p53 mut binder inactive and ID4 SMM inactive.
For C[C@@H]1CN([C@@H](C)CO)C(=O)c2cc(NC(=O)Cc3ccccc3)ccc2O[C@@H](C)CCCCO[C@@H]1CN(C)S(=O)(=O)c1cccs1 the results were STAT3 SMM inactive, Myc binder inactive, p53 mut binder inactive and ID4 SMM inactive.
C[C@@H]1CN([C@H](C)CO)C(=O)c2cc(NC(=O)Nc3ccc4c(c3)OCO4)ccc2O[C@H]1CN(C)C(=O)NC1CCCCC1 was read as STAT3 SMM inactive, Myc binder inactive, p53 mut binder inactive and ID4 SMM inactive.
`C[C@H]1CCCCO[C@H](CN(C)C)[C@@H](C)CN([C@@H](C)CO)C(=O)c2cc(NC(=O)Cc3ccccc3)ccc2O1` gave STAT3 SMM inactive, Myc binder inactive, p53 mut binder inactive and ID4 SMM inactive.
`Cc1nnc(SCc2nc(-c3ccccc3)no2)n1-c1ccccc1` gave STAT3 SMM inactive, Myc binder inactive, p53 mut binder inactive and ID4 SMM inactive.
`C[C@@H]1CN([C@H](C)CO)C(=O)c2cc(NC(=O)Cn3cnnn3)ccc2O[C@H]1CN(C)C(=O)NC1CCCCC1` gave STAT3 SMM inactive, Myc binder inactive, p53 mut binder inactive and ID4 SMM inactive.
`O=C(Nc1cccc([N+](=O)[O-])c1)c1ccc(Cn2nnc3ccccc32)cc1` gave STAT3 SMM inactive, Myc binder inactive, p53 mut binder inactive and ID4 SMM inactive.
`COCCOC(=O)N1C(=O)[C@@]2(c3ccccc31)[C@H](C(N)=O)[C@H]1C(=O)O[C@H](c3ccccc3)[C@H](c3ccccc3)N1[C@@H]2c1ccc(OCCO)cc1` gave STAT3 SMM inactive, Myc binder inactive and p53 mut binder inactive.
CN(CC(=O)Nc1ccccc1C(C)(C)C)S(=O)(=O)c1ccc(Cl)cc1 was read as STAT3 SMM inactive, Myc binder inactive, p53 mut binder inactive and ID4 SMM inactive.
Cc1noc(C)c1S(=O)(=O)N(C)C[C@H]1OCCCC[C@@H](C)Oc2ccc(NC(=O)CCCN(C)C)cc2C(=O)N([C@H](C)CO)C[C@@H]1C was read as STAT3 SMM inactive, Myc binder inactive, p53 mut binder inactive and ID4 SMM inactive.
`COC(=O)C[C@](O)(CCCC(C)(C)O)C(=O)O[C@@H]1C(OC)=C[C@]23CCCN2CCc2cc4c(cc2[C@H]13)OCO4` gave STAT3 SMM inactive, Myc binder inactive, p53 mut binder inactive and ID4 SMM inactive.

Structural class: those above containing a Cl atom.
Screening C[C@@H]1CN([C@@H](C)CO)C(=O)Cc2cc(NS(=O)(=O)c3cn(C)cn3)ccc2O[C@H]1CN(C)S(=O)(=O)c1ccc(Cl)cc1 returned STAT3 SMM inactive, Myc binder inactive, p53 mut binder inactive and ID4 SMM inactive.
O=C(O)CC(Cc1ccccc1)C(=O)Nc1ccc(Cl)c(Cl)c1 (stereo not drawn) was read as STAT3 SMM inactive, Myc binder inactive, p53 mut binder inactive and ID4 SMM inactive.
Screening Cc1ccc(O)c(NC(=O)CCCOc2ccc(Cl)cc2Cl)c1 returned STAT3 SMM inactive, Myc binder inactive, p53 mut binder inactive and ID4 SMM inactive.
For O=C(CN1C(=O)CNC1=O)Nc1ccc(Cl)cc1 the results were STAT3 SMM inactive, Myc binder inactive, p53 mut binder inactive and ID4 SMM inactive.
`O=C(Nc1ccc(Cl)cc1Cl)NC(Cc1ccc(O)cc1)C(=O)O` (stereo not drawn) gave STAT3 SMM inactive, Myc binder inactive, p53 mut binder inactive and ID4 SMM active.
CN(CC(=O)Nc1ccccc1C(C)(C)C)S(=O)(=O)c1ccc(Cl)cc1 was read as STAT3 SMM inactive, Myc binder inactive, p53 mut binder inactive and ID4 SMM inactive.
